PINK1 expr mod = PINK1 expression modulation | 410,000 tested, 0.2% active | AID 624263 | PINK1 immunofluorescence, high-content cytometry, 24 h | Potency, µM (top dose mostly 76.6 µM), without a hit: at the highest dose activation (PINK1 increase), most hits filed as activators; active = well fitted activation curve with a large enough effect; inconclusive = small, poorly fitted or top-dose-only effect; inactive = flat fitted curve, though single readings scatter; cell line not stated here;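 further: potency means the concentration at half of the fitted maximal effect; % of control where 0% means no effect; nearly all actives have a fitted effect of over 65% in size; a mitochondrial uncoupler was the plate control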
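Stable cell line, 250 cells/well, 12 h attachment; compounds pinned at 5 concentrations, 24 h; CCCP control. Fixed with nuclear dye, primary antibodies 12 h at 10 degrees C, secondary plus cell stain; laser-scanning cytometer read.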
TRPML1 blocker = blocks the human TRPML1 channel; activity change, negative = inhibition, % (no concentration beside the values); 390,000 tested, 0.02% active; TRPML1-inducible cells, Ca2+ dye fluorescence, FDSS; stronger effect = lower value; inhibition of EC80 agonist-evoked calcium signal; Q9GZU1; in the data active means activity change below about -50%; inconclusive means about -30% to -50%; inactive means above about -30%;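 further: stimulus is agonist 54-4 at its EC80 concentration; on the % scale 0 is the no-effect control and ±100 the full control effect; compound concentration not given in the record; the text of the record puts the active cut at -80%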
Target sequence (Q9GZU1 whole entry, looked up): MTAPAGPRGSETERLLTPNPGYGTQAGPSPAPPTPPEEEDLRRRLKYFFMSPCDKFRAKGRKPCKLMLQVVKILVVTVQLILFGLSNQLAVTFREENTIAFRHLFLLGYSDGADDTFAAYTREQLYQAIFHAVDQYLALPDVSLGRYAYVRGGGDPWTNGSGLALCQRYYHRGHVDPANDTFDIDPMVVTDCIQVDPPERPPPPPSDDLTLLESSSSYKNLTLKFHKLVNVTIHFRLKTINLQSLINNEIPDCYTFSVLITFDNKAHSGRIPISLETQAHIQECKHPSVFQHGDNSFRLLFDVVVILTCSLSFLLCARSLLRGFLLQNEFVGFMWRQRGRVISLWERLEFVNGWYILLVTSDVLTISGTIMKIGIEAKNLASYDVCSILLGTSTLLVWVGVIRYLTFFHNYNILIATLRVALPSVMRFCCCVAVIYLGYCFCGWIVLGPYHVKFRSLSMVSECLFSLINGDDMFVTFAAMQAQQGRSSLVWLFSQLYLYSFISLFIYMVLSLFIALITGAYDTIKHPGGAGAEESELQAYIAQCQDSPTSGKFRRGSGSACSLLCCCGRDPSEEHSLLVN
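Tet-induced TRPML1-DL cells loaded with Ca8 no-wash calcium dye were read kinetically on FDSS. Compound addition was followed by EC80 agonist 54-4 (4 uM final); inhibition was read over 110 s.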
D2 ag = human D2 receptor agonism in beta-arrestin assay | activation, % (no concentration beside the values) | 360,000 tested, 0.084% active | DiscoveRx PathHunter D2 beta-arrestin, luminescence, 90 min; 100% = 57 uM dopamine signal; in the data active = activation above about 40%; inconclusive = about 15% to 40%; inactive = below about 15%; further: compound concentration not given in the record; the text of the record calls up to 30% inactive
Target sequence (P14416 whole entry, looked up): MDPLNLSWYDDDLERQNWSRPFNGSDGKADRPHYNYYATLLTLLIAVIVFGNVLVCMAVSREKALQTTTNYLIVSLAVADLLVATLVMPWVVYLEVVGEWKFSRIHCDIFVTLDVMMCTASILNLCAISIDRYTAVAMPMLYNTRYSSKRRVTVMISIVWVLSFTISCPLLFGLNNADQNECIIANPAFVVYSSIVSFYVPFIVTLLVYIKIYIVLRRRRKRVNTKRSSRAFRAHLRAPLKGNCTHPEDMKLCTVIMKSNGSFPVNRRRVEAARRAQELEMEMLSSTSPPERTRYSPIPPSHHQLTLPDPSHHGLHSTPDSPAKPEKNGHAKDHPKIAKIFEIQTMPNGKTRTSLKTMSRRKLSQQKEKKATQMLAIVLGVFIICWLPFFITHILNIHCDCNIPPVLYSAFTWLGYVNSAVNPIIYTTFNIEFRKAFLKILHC
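Agonist mode: compounds alone added to overnight-plated D2 PathHunter cells for 90 min at 37 C, with 57 uM final dopamine (EC100) defining full response. Beta-arrestin recruitment detected by chemiluminescent reagent, read after 1 h at ambient temperature.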
Six1-Eya2 blk = blocks human Six1 binding to Eya2; Q15475+O00167; AlphaScreen GST-Six1/His-Eya2 binding, biochemical; stronger effect = lower value; control for the full effect not named in the record; activity change, % (concentration not given with the values); 360,000 tested, 0.56% active; AID 651725; in the data active = activity change below about -65%; inconclusive = about -30% to -65%; inactive = above about -30%; further: on the % scale 0 is the no-effect control and ±100 the full control effect
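GST-Six1 + His-Eya2 (5X stock: 250/500 nM); Tris pH 8.0, 300 mM NaCl, 0.05% BSA, 0.02% Tween 20; GSH donor/Ni acceptor beads; 1 h 37 °C dark; AlphaScreen readout.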
TRPML1 ag = agonists of human TRPML1 channel; Q9GZU1; 410,000 tested, 0.12% active; AID 624414; activation, % (test concentration not listed); TRPML1-expressing cells, Ca2+ dye fluorescence, FDSS; host cell line not named in the record; reference of the full effect not given here; in the data active = activation above about 50%; inconclusive = about 30% to 50%; inactive = below about 30%; further: 0% is about no effect; the text of the record puts the active cut at 80%
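Cells: TRPML1-DL, 1X Tet inducer, ~16 h at 37 degrees C/5% CO2. Dye: ABD Ca8 no-wash + quencher, 45-90 min RT. Read: 10 s baseline, compound add, 110 s agonist phase; 54-4 EC80 (4uM final), 110 s antagonist phase.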
D2 potentiator = positive allosteric modulators of human D2 dopamine receptor; DiscoveRx D2 beta-arrestin cells, luminescence, 90 min; 100% = 57 uM dopamine signal; potentiation, % (no concentration beside the values); 360,000 tested, 0.23% active; AID 624464; active = potentiation of 50% or more; inconclusive = 30% to 50%; inactive = 30% or less;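 further: compound concentration not given in the record; tested on top of an EC20 dose of dopamine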
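PathHunter beta-arrestin assay in DiscoveRx D2 cells. Compounds were added with an EC20 of dopamine (50 nM final) for 90 min at 37 deg C. Luminescence was read 1 h after detection reagent, with 57 uM dopamine as the EC100 control.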
The depositor's hits bear a star; ? = inconclusive; . = no result given; & = joins results of further samples; [ ] = another dose, or the depositor's remark.

The opening 2 records, ahead of the listing:
SMILES	Six1-Eya2 blk	D2 ag	PINK1 expr mod	D2 potentiator	TRPML1 ag	TRPML1 blocker
CN(C)c1ccc(C(CNS(=O)(=O)c2ccc3ccccc3c2)c2c[nH]c3ccccc23)cc1 (stereo unspecified)	?	-0.3	10%	-6	2.0	8
COc1ccc(NS(=O)(=O)c2ccc3c(c2)NC(=O)CO3)c(OC)c1	-1	-1.6	-1.3%	-10	-1.0	-3

The list itself, from the start:
SMILES	Six1-Eya2 blk	D2 ag	PINK1 expr mod	D2 potentiator	TRPML1 ag	TRPML1 blocker
CN(C)c1ccc(C(CNS(=O)(=O)c2ccc3ccccc3c2)c2c[nH]c3ccccc23)cc1 (stereo unspecified)	?	-0.3	10%	-6	2.0	8
COc1ccc(NS(=O)(=O)c2ccc3c(c2)NC(=O)CO3)c(OC)c1	-1	-1.6	-1.3%	-10	-1.0	-3
Cc1cc2nc(-c3ccc(C#N)cc3)c(Cc3cccc(F)c3)n2c(C)c1Br	-2	-9.2	2.9%	-10	0.1	27
O=C(CCC(=O)c1cccs1)OCC(=O)N1CCN(C(=O)c2ccco2)CC1	-2	2.0	0.8%	12	-0.5	-13
O=C(CC1(O)C(=O)N(Cc2ccc3c(c2)OCO3)c2ccccc21)c1ccccc1 (stereo unspecified)	-1	-2.2	-0.5%	1	1.9	-6
O=C(Nc1cc(S(=O)(=O)N2CCOCC2)ccc1O)c1ccc(S(=O)(=O)N2CCCCC2)cc1	-7	-4.6	4.9%	8	-0.9	7
CCOc1ccc2cc(C#N)c(SCC(=O)N3CCOCC3)nc2c1	-2	-0.4	-0.5%	5	-0.8	6
C[C@H]1CN([C@@H](C)CO)C(=O)c2cccc(NC(=O)c3cnccn3)c2O[C@@H]1CN(C)C(=O)Nc1ccc2c(c1)OCO2	-8	-0.7	0.4%	-4	-0.6	2
COCCn1c(-c2ccc(F)cc2)nc2oc3cc(OC)ccc3c(=O)c2c1=O	0	-3.6	-1.0%	-5	2.2	-1
COc1cccc(N2C(=O)CSC23C(=O)N(CC(=O)NCc2ccc(C)cc2)c2ccccc23)c1 (stereo unspecified)	.	.	-4.6%	.	0.7	-12
O=c1[nH]c2cc([N+](=O)[O-])c([N+](=O)[O-])cc2[nH]c1=O	?	-5.3	1.6%	-8	-0.2	0
Cc1ccc(S(=O)(=O)N(Cc2cccc(F)c2)C(=O)N2CCN(C)CC2)cc1	6	-0.9	-0.9%	2	-0.3	-4
COc1ccc(NC(=O)CN(C)C(=O)/C=C/c2cn(-c3ccccc3)nc2-c2ccc(F)cc2)cc1	-12	-2.6	4.5%	-21	1.1	-8
O=C(COC(=O)c1ccc(F)cc1F)NCCC1=CCCCC1	11	4.8	-1.8%	-19	3.3	-10
Cc1cc(C(=O)Nc2ccccc2C#N)n(-c2ccccc2)n1	-3	-1.1	0.9%	-1	0.4	-10
COc1cccc(NC(=O)Cn2c(=O)n(CCCCC(=O)NCc3ccccc3Cl)c(=O)c3ccccc32)c1	.	.	0.7%	.	1.2	19
CC(C)(C)Cc1nnc(NS(C)(=O)=O)s1	4	-0.4	-4.3%[38.3 µM]	-1	0.2	-4
CC(C)(CNS(=O)(=O)c1ccc2c(c1)OCCO2)N1CCOCC1	8	-3.3	2.3%	-3	0.5	24
COc1cccc(CNC(=O)c2cccc(Br)c2)c1	-5	-3.1	-0.3%	-17	1.0	2
Cc1ccc(C(C)C)cc1OCC(=O)Nc1nnc(C2CC2)s1	8	1.5	1.6%	-1	1.9	13

3 of the entries above in order of the PINK1 expr mod value, smallest number first:
SMILES	PINK1 expr mod
O=C(COC(=O)c1ccc(F)cc1F)NCCC1=CCCCC1	-1.8%
O=C(CCC(=O)c1cccs1)OCC(=O)N1CCN(C(=O)c2ccco2)CC1	0.8%
O=C(Nc1cc(S(=O)(=O)N2CCOCC2)ccc1O)c1ccc(S(=O)(=O)N2CCCCC2)cc1	4.9%

The list continues.
SMILES	Six1-Eya2 blk	D2 ag	PINK1 expr mod	D2 potentiator	TRPML1 ag	TRPML1 blocker
COc1ccc(Cl)cc1NC(=O)CCn1c(=O)c2cccn2c2ccccc21	.	.	4.1%	.	4.7	42
Cc1oc2ccc(O)c(CN3CCCCCC3)c2c1C(=O)Nc1cccc(C(F)(F)F)c1	.	.	-0.8%	.	-0.7	45
CCc1ccc(NC(=O)CCn2nc(C)c(S(=O)(=O)N3CCCCC3)c2C)cc1	-4	3.3	-0.7%&-0.7%	-15	0.5&1.5	5&12
COc1ccc(CCC(=O)N2CCN(c3ccccc3)CC2)cc1OC	4	6.8	-1.1%	0	1.5	12
CN1CCN(C(=O)Nc2ccccc2)CC1	-1	-4.3	2.5%	5	0.8	7
CCOc1c(Cl)cc(/C=N/NC(N)=S)cc1OC	-6	-4.7	1.9%	-10	0.5	20
CCCCN(C(=O)CSc1nc2ccccc2n1CC)C1CCS(=O)(=O)C1 (stereo unspecified)	0	-4.3	-0.3%	-12	5.2	34
COc1ccc([C@@H]2C[C@H]3[C@@H](CN2S(=O)(=O)c2ccccc2)C(=O)C[C@@H](c2ccc(OC)cc2)N3S(=O)(=O)c2ccccc2)cc1	-2	-3.8	2.8%	-1	0.6	76
O=C(NCC1CCCO1)C(C(=O)c1ccc(F)cc1)n1ccccc1=O (stereo unspecified)	-1	1.1	-1.7%	0	0.8	-9
CCC(=O)N1CCc2cc(S(=O)(=O)NCCC(=O)Nc3cccc(SC)c3)ccc21	.	.	-0.4%	.	-0.2	-8
O=S(=O)(NCc1ccccc1)NCc1cccc(C(F)(F)F)c1	7	-0.6	7.0%	-7	0.8	-4
COC(=O)N(C)C[C@H]1OCc2cnnn2CCCC(=O)N([C@@H](C)CO)C[C@H]1C	11	-4.8	2.1%	-13	-0.4	-7
Cc1csc(NC(=O)CSc2nnc(Cn3c(=O)sc4ccccc43)n2-c2ccccc2)n1	-7	-0.7	-3.0%	-5	1.0	23
Cc1cccc(CC(=O)Nc2cccnc2)c1	3	0.1	-0.9%	-19	-0.7	1
Cc1nc(C(=O)NCc2ccccc2)sc1C1(C)CC(c2cccnc2)=NO1 (stereo unspecified)	-4	-2.9	0.8%	-3	3.6	65
CCCc1cc(=O)[nH]c(SCC(=O)Nc2ccc(Cl)c(S(=O)(=O)N3CCOCC3)c2)n1	-15	4.5	2.9%	1	3.3	9
O=C1c2ccccc2C(=O)C1(CO)c1ccccc1	-1	-1.8	-0.2%	-10	0.5	4
COc1ccccc1N1CCN(C(=O)Cn2ncc3c(=O)oc4ccccc4c32)CC1	.	.	5.2%	.	-0.3	11
CN1CCc2c(n(CC(O)CNCc3ccccc3)c3ccccc23)C1=O (stereo unspecified)	-1	0.2	-0.2%	-11	0.3	8
CCOC(=O)c1ccc(NC(=O)Nc2ccon2)cc1	-5	-1.0	4.0%	-2	-0.4	-8
COC(=O)C[C@H]1C[C@H]2c3cc(NC(=O)C4CCC4)ccc3O[C@H]2[C@H](CO)O1	1	-9.4	2.8%	-2	-0.4	-18
NC(=O)CN(C/C=C/c1ccccc1)C/C=C/c1ccccc1	10	-4.5	3.2%	-38	-0.8	1
CCc1ccccc1S(=O)(=O)Cc1ccc(C(=O)N2CCN(c3ccccc3OC)CC2)o1	0	2.3	0.0%	-2	0.1	-9
CCOc1ccc(-n2c(C)cc(C(=O)CCl)c2C)cc1	-5	-5.7	-1.2%	15	-1.0	5
Cc1cc(O)c2c(c1)C(=O)[C@@]13Oc4c5c(c(O)c6c(O)cc(C)cc46)C(=O)C[C@H](O)[C@H]5[C@@H]1[C@@H](O)CC(=O)C3=C2O	?	11	0.7%	66*	.	.
O=C(CCN1CCCCO1)N1CCCC(Nc2ccc(F)cc2)C1 (stereo unspecified)	2	-4.7	-0.9%	-9	1.1	6
O=C1O/C(=C\C(=O)N2CCOCC2)c2ccccc21	7	-2.1	1.3%	2	-0.2	-5
CCOc1ccc(C(=S)N2CCCC2)c(OCC)c1	-1	1.8	-1.3%	-32	-1.5	-2
CCOC(=O)c1c(C)[nH]c(N=Nc2ccc(C)cc2)c1C	?	-1.5	6.3%[38.3 µM]	-18	-0.2	18
Cc1ccc2c(c1)CCCN2C(=O)c1ccncc1	-13	-1.4	3.3%[38.3 µM]	-11	-0.6	15
Cc1ccc(NC(=S)N(CCN(C)C)C(C)c2ccco2)c(C)c1 (stereo unspecified)	-12	-5.4	0.8%	-23	-0.4	5
COc1ccc(C(O)(C(=O)NNc2ccc(C)cc2)c2cccs2)cc1 (stereo unspecified)	-3	-6.6	-0.6%	-3	1.4	11
Cc1cc(C)nc(NC(=O)c2csnn2)c1	5	-2.6	1.4%	-6	0.3	6
Cc1c(F)cccc1NS(=O)(=O)c1ccc(OCCNS(C)(=O)=O)cc1	5	4.2	-1.5%	4	0.6	10
COc1cc2cc(C(=O)N/N=C/c3ccc(F)cc3)[nH]c2cc1OC	-4	8.1	-2.2%	-9	1.7	-17
COc1ccc(CCn2c(-c3cccc([N+](=O)[O-])c3)nc3nc4ccccc4nc32)cc1	4	-2.5	5.6%	-4	.	.
Cc1cc(C)n2nc(SCC(=O)Nc3cccc(C(F)(F)F)c3)nc2n1	.	.	0.8%	.	1.0	7
Cc1ccc(S(=O)(=O)N2CCN(C(=O)C3CCCC3)CC2)cc1C	-6	1.2	2.9%	-5	0.3	-6
N#Cc1c(-c2cccc([N+](=O)[O-])c2)nc2n(c1=O)CCS2	-11	-2.4	2.0%	-2	-0.9	-5
CCCC(=O)Nc1ccc(C(=O)NNC(=O)c2cccc([N+](=O)[O-])c2)cc1	0	-1.6	1.1%	2	-0.5	0
O=C(C1CCCCC1)N1CCN(S(=O)(=O)c2ccc(Cl)cc2)CC1	1	-1.8	-0.4%	3	-0.8	-5
Cc1cccc(OCC(=O)Nc2ccccc2C(=O)OCc2cc(=O)n3nc(C)sc3n2)c1	.	.	0.3%	.	1.9	-14
C[C@H]1CN([C@@H](C)CO)C(=O)CCCn2nncc2CO[C@H]1CN(C)C(=O)Nc1cccc2ccccc12	8	-4.9	1.8%	-3	0.6	-7
COc1cc2c(cc1/C=C/C(=O)O)OC(C)C2 (stereo unspecified)	2	0.7	-1.0%	1	0.0	0
O=C(CCC(=O)Nc1ccccc1)NNC(=O)c1ccccc1Cl	3	-2.1	0.5%	-5	0.7	7
O=C(CSCc1cc(=O)n2ccsc2n1)Nc1ccccc1	2	-3.3	-0.4%	1	0.0	39
Cc1ccc2c(c1)N(CCC(=O)NCCCOC(C)C)C(=O)C(C)O2 (stereo unspecified)	0	-5.9	-2.9%	-13	0.0	7
CCc1ccc(C2c3[nH]c4ccccc4c3CCN2C(=O)CN2CCN(CC)CC2)cc1 (stereo unspecified)	-27	-3.4	-0.1%	-18	3.1	0
O=C(CCCNC(=O)c1ccc(Cl)cc1)Nc1ncccc1O	-12	-2.4	0.0%	-6	0.6	0

An unsorted share of the library. About 1% of those tested had a hit in this group.
